High-throughput results deposited in PubChem by National Center for Advancing Translational Sciences (NCATS).
GLA inh pH 4.5 – blocks human alpha-galactosidase A at pH 4.5. P06280. purified enzyme, 4-MU-alpha-Gal fluorescence, pH 4.5. activity change, negative = inhibition, % at 105 µM. 230,000 tested, under 10 active; inconclusive = small, poorly fitted or top-dose-only inhibition, or a rising curve; inactive = flat fitted curve, though single readings scatter; no compound was filed as active;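 further: 0% = full activity with enzyme and -100% = basal without enzyme; dose as in the result columns while the protocol names 77 µM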
Rango dissoc inh – prevents RanGTP from dissociating the Rango-importin beta complex; hit rate 0.071% among 340,000; Potency, µM (top dose mostly 46.1 µM), without a hit: at the top dose activity change, negative = inhibition; Biochemical FRET Rango-importin beta, RanGTP-induced dissociation; active means falling FRET ratio curve, often poorly fitted, with flat reads before Ran was added; inconclusive means other falling curves, or compound fluorescence or quenching; inactive means flat or rising ratio curve;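 further: potency means the concentration at half of the fitted maximal effect; % of control where 0% means no effect; nearly all actives have a fitted effect of over 45% in size; -100% = wells without RanGTP and RCC1; the record marks most hits as doubtful in a second field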
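FRET read at 45 min, room temperature: inhibitors block the CFP/YFP signal rise when RanGTP (0.6 uM Ran, 2 mM GTP, 0.2 uM RCC1) frees Rango (0.1 uM) from importin beta (0.25 uM). Pre-read after 5 min compound exposure flags interference.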
miR-21 reporter – miR-21 reporter, rising signal; Potency, µM (highest dose often 38.3 µM), without a hit: at the top dose reporter change, positive = more light; 340,000 tested, under 10 active; HeLa miR-21 FLuc reporter, luciferase, 48 h; active = well fitted rising curve with a large enough effect; inconclusive = small, poorly fitted or top-dose-only effect; inactive = no such curve, though single readings can be large or run the other way;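 further: % of control where 0% means no effect; miR-21 action dims this reporter so a rising signal means less miR-21 action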
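HeLa cells stably expressing CMV-driven firefly luciferase with a downstream miR-21 binding sequence, endogenously expressing miR-21, were treated with titrations (up to about 40uM final) for 48 hours at 37 degree Celsius. Luciferase luminescence was read after lysis.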
Rango complex inh – Rango-importin beta binding inhibition. Rango CFP/YFP FRET sensor + importin beta, 45 min. hit rate 0.031% among 340,000. Potency, µM (top dose mostly 92.2 µM), without a hit: top-dose inhibition of complex formation; active = rising FRET ratio curve, often small or poorly fitted; inconclusive = mostly compound fluorescence or quenching in the first reads; inactive = flat curves in all reads;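 further: potency means the concentration at half of the fitted maximal effect; 0% = DMSO wells and 100% = buffer wells lacking importin beta; nearly all actives have a fitted effect of over 15% in size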
Target sequence (Q14974 whole entry, looked up): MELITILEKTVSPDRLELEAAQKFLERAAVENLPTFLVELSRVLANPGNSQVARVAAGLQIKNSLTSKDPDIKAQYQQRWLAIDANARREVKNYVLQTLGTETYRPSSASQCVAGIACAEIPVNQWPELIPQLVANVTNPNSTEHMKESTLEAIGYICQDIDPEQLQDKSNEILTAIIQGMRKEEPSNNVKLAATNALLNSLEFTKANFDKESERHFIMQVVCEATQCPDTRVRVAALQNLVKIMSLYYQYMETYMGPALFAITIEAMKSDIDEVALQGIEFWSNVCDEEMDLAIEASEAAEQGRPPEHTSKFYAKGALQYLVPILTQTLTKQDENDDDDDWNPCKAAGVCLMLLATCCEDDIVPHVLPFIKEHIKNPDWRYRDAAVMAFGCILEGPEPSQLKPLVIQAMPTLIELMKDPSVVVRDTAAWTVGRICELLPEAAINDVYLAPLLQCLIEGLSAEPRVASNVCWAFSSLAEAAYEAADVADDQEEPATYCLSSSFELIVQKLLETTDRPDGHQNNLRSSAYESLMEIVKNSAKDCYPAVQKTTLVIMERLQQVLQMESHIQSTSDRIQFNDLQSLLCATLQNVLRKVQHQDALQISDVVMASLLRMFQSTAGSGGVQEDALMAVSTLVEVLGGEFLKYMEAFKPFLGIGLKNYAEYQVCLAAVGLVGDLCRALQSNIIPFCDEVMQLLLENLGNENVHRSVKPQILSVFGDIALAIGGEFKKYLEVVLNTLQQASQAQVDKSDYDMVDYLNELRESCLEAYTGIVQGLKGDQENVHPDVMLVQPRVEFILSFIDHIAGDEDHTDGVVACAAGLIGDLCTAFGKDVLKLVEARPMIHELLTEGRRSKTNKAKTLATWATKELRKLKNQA
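FRET biosensor Rango (snurportin 1 IBB between N-terminal EYFP and C-terminal Cerulean), 50 nM in PBS/1 mM DTT/0.02% Tween-20/0.1% BSA, preincubated 5 min RT with compound; 0.125 microM importin beta added, 45 min RT, CFP/YFP FRET ratio read.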
* = called active by the depositor; u = inconclusive; x = not tested or not shown; & = joins results of further samples; [ ] = dose if it differs, or a comment. Not all compounds are listed, so the mix of outcomes need not match the whole.

Values in the order: GLA inh pH 4.5	Rango dissoc inh	miR-21 reporter	Rango complex inh
1. Cc1oc(-c2ccc(Cl)cc2)nc1CN1CCCC(C(=O)NCc2ccccn2)C1 (stereo not given)
  -14	18%	0%	0.4%
2. COc1ccc(C2c3cc(OC)c(OC)cc3CCN2C(=O)c2ccccc2Br)cc1OC (stereo not given)
  x	-6%	-5%	-1.9%
3. COc1ccc2c(CC(=O)Nc3ccccc3OC)coc2c1
  -15	4%	-24%	-1.3%
4. CC(O)c1cccc(-c2ccc(CN3C[C@]4(CO)O[C@@H](CO)C[C@@H]4S3(=O)=O)cc2)c1 (stereo not given in full)
  x	-1%	x	2.3%
5. O=C(O)c1cccc(-c2ccc(/C=C3/SC(=Nc4ccccc4)N(Cc4cccnc4)C3=O)o2)c1
  x	3%	-9%	1.8%
6. CC(NS(=O)(=O)c1ccc(Br)cc1)C(=O)NCc1ccc2c(c1)OCO2 (stereo not given)
  4	-5%	-6%	-0.4%
7. COC(=O)c1sc2nc(CSc3ccc(Br)cc3)[nH]c(=O)c2c1C
  0	-3%	-18%	u
8. Cc1ccccc1-c1nc(CN2CCC(C(=O)NC3CCCCC3)CC2)c(C)o1
  x	1%	-2%	2.2%
9. CC(C)[C@H](CN(N=O)[C@@H](Cc1ccccc1)CN(C)N=O)N(CCc1ccccc1)N=O
  -3	7%	4%	1.5%
10. N#C/C(=C\c1ccc(OCCN2CCOCC2)cc1)C(=O)Nc1ccccc1
  x	-9%	-5%	-3.5%
11. CCCS(=O)(=O)Nc1ccc(-c2ccc3nnc(C)n3n2)cc1
  7	x	8%	x
12. Cc1cc(OCCn2cnc3ccccc3c2=O)cc(C(C)C)c1
  16	18%	-6%	7.4%
13. O=C(Cn1c2ccccc2c(=O)c2cc([N+](=O)[O-])ccc21)Nc1ccccc1Cl
  -4	u	-15%	u
14. O=C(Nc1ccno1)Nc1ccc(Cl)cc1Cl
  2	-23%	-5%	0.6%
15. CC(C)(C)C(=O)Nc1ccc(-c2csnn2)cc1
  -6	5%	-53%	4.9%
16. O=C(CSc1nnc(CNc2ccc(F)cc2)n1Cc1ccccc1)NCc1ccccc1
  -5	10%	1%	-1.2%
17. CC(CN1CCOCC1)OC(=O)c1ccccc1 (stereo not given)
  -9	26%	-2%	1.0%
18. COc1ccc(/C=N/NC(=O)c2ccco2)cc1OCc1ccccc1
  -2	10%	-16%	-0.2%
19. Cc1ccnc2nc(C(=O)OCCOc3cccc(Br)c3)nn12
  2	19%	-5%	-0.4%
20. C/C(=N\NC(=O)c1c[nH]c2ccccc12)c1ccc(C)o1
  -5	-3%	-32%	0.3%
21. CCOC(=O)[C@@H]1[C@H]2COc3ccccc3[C@H]2N2C(=O)N(c3ccc(C)cc3)C(=O)[C@]12C
  x	18%	0%	-7.7%
22. COc1cc2c(cc1OC)CN(C(=O)c1ccc(S(=O)(=O)N3CCCCCC3)cc1)CC2
  -4	-2%	-13%	0.8%
23. CC(=O)NC(Cc1cccc(F)c1)C(=O)NC1CCN(c2ncccc2[N+](=O)[O-])CC1 (stereo not given)
  -6	-15%	-7%	0.1%
24. O=C(CCCNS(=O)(=O)c1ccccc1)NCc1ccco1
  -4	-9%	-2%	-5.9%
25. COc1ccccc1-c1c(NC(=O)c2ccco2)n(C)c2ccccc2c1=O
  -6	-10%	-10%	0.7%
26. COc1cccc(CNC(=O)Cn2cc([N+](=O)[O-])cn2)c1
  x	4%	-2%	4.0%
27. CCN(CC)CCN(C(=O)c1ccc2ncsc2c1)c1nc2cc3c(cc2s1)OCO3
  x	9%	-68%	-1.2%
28. CCCC(=O)OCCNc1cc(Sc2nccn2C)c2nonc2c1[N+](=O)[O-]
  0	-7%	u	u
29. COc1ccccc1N1CCN(C(=O)C2CCCO2)CC1 (stereo not given)
  3	4%	-2%	-4.2%
30. CCC1=C(OC(=O)N(CC)CC)N2C(=O)OC(=NCCc3c[nH]c4ccccc34)[C@]2(C)[C@H]2C1=CC[C@H]1C(=O)N(CC(=O)OC)C(=O)[C@H]12
  -16&-4	16%	4%	-3.5%
31. Cc1ccc(/C=C2\OC(=O)c3ccccc32)cc1
  -25	-4%	-67%	0.4%
32. O=C(CN1C(=O)NC2(CCCCCC2)C1=O)N1CCN(c2ccc(F)cc2)CC1
  x	u	x	-2.7%
33. COC(=O)CCN(c1ccccc1)S(=O)(=O)c1cc(-c2cc(C)no2)ccc1OC
  x	0%	2%&2%	7.2%
34. Cc1c(OCC(=O)OC(C)(C)C)ccc2c3c(c(=O)oc12)CCC3
  2	-8%	-17%	1.4%
35. Cc1nnsc1NC(=O)OCCCl
  6	u	0%	u
36. CC(=O)c1cccc(NC(=O)CSc2ccc(-c3ccc4c(c3)OCO4)nn2)c1
  3	-14%	-6%	2.9%
37. CC(=O)c1ccc(Sc2nnc(C)s2)c([N+](=O)[O-])c1
  -15	13%	0%	-1.8%
38. COc1ccccc1NC(=O)C/C(N)=N/O
  4	12%	0%	-1.1%
39. O=[N+]([O-])/C(C(Cl)=C(Cl)Cl)=C(/NC1CC1)Sc1ccccc1
  -12	-2%	1%	0.6%
40. N#Cc1ccsc1NC(=O)COC(=O)c1ccc2ccccc2c1
  8	-16%	-49%	-3.1%
41. O=C(Cn1nnc(-c2ccccc2Cl)n1)Nc1cccc(S(=O)(=O)N2CCCC2)c1
  x	-12%	x	-2.3%
42. C[C@H](CO)N1C[C@H](C)[C@@H](CN(C)CC2CCCCC2)Oc2c(NS(=O)(=O)c3ccccc3)cccc2C1=O
  x	5%	x	2.5%
43. CCn1c(SCc2cccc(C)c2)nnc1-c1ccc(C)cc1
  6	-5%	2%	6.2%
44. COC(=O)Nc1ccc(S(=O)(=O)N(CCO)CCO)cc1
  6	13%	1%	-0.1%
45. Cc1ccc(S(=O)(=O)N(C)C)cc1NC(=O)Nc1c(-c2ccccc2)noc1C
  -5	9%	-1%	-1.3%
46. CN1CCN(C(=O)/C(=C/c2ccc(N(C)C)cc2)NC(=O)c2ccccc2)CC1
  x	u	-6%	u
47. CCOc1ccc(N2CCn3c2nc2c3c(=O)n(CCc3ccccc3)c(=O)n2C)cc1
  4	x	-2%	x
48. COc1ccc(CN2C(=O)c3cccnc3C2=O)cc1S(=O)(=O)N(C)Cc1ccco1
  x	-8%	2%	0.0%
49. O=C1/C(=C/c2ccc(Cl)cc2)NC(=S)N1Cc1cccnc1
  0	-24%	3%	u
50. O=C(CCCC(=O)N(CC(=O)NC1CCCCC1)Cc1ccccc1)Nc1ccccn1
  3	-6%	-2%	-0.6%
51. Cc1ccc(C(=O)Nc2nnc(-c3ccco3)o2)cc1
  2	0%	-51%	-4.0%
52. CCOc1ccc(C(CC(=O)O)NC(=O)C(c2ccccc2)c2ccccc2)cc1OC (stereo not given)
  x	1%	x	1.6%
53. CC(=O)Nc1ccc(/C(C)=N/Nc2nc(Nc3cccc4ccccc34)nc(N3CCOCC3)n2)cc1
  12	7%	2%	0.9%
54. Oc1ccc(-c2nc3ccc4ccccc4c3c3c2CCC3)cc1O
  -28	-13%	-49%	0.7%
55. O=C(/C=C/c1ccc(S(=O)(=O)N2CCOCC2)cc1)NCc1ccc(Cl)cc1
  -8	5%	0%	-2.4%
56. O=C(Nc1nc(-c2ccccc2)cs1)C1c2ccccc2Oc2ccccc21
  -2	1%	0%	6.1%
57. CCCCOc1ccc(-c2cc(C(F)(F)F)c(C#N)c(SCC(=O)O)n2)cc1
  3[21.1 µM]	-21%	-1%	-2.2%
58. Fc1ccc(C(c2ccc(F)cc2)N2CCN(C/C=C/c3ccccc3)CC2)cc1
  -5&-5&-4	-17%	u	-0.3%
59. COC(=O)c1ccccc1NC(=O)Nc1nnc(N2CCC(C)CC2)s1
  2	4%	6%&-17%	-4.2%
60. O=C(Nc1ccccc1F)C1CCCN(S(=O)(=O)c2ccc(-n3cnnn3)cc2)C1 (stereo not given)
  x	-2%	-1%	-0.8%

Next part
Values in the order: GLA inh pH 4.5	Rango dissoc inh	miR-21 reporter	Rango complex inh
61. COC(=O)c1cccc(NCN2C(=O)c3ccccc3C2=O)c1
  6	0%	-2%	-1.0%
62. O=C(Nc1ccc(N2C(=O)C3CCCCC3C2=O)cc1Cl)c1cccs1 (stereo not given)
  -6	19%	-12%	-2.0%
63. CCCCCN(C(=O)COC(=O)CSc1ccc([N+](=O)[O-])cc1)c1c(N)n(CCCC)c(=O)[nH]c1=O
  x	0%	x	-1.8%
64. C=C(Cl)COc1ccc2c(CC)cc(=O)oc2c1
  4	17%	-28%	3.8%
65. NS(=O)(=O)c1ccc(NC(=O)c2ccccc2C(=O)N2CCCCC2)cc1
  6	7%	0%	2.0%
66. Cc1cc(=O)oc2c(C)c(OCC(=O)NCc3ccccn3)ccc12
  x	-22%	0%	-1.1%
67. CCn1c(SCc2ccc(OC)c(F)c2)nc2ccccc2c1=O
  x	0%	-7%	-2.7%
68. CCCn1c(O)c(N=NC(=O)CNC(=O)/C=C/c2ccc(OC)cc2)c2ccccc21
  x	3%	0%	1.9%
69. COc1ccc(-c2onc(C)c2-c2cnn(-c3ccccc3)c2)c(O)c1
  1	1%	-14%	0.5%
70. O=C(Nc1ccc(Br)cn1)c1cccc(S(=O)(=O)N2CCCC2)c1
  x	27%	x	0.2%
71. CC(C)C(=O)NNC(=O)C1CC1(c1ccccc1)c1ccccc1 (stereo not given)
  x	3%	-1%	-0.1%
72. CC1CN(S(=O)(=O)c2cccc(C(=O)OCC(=O)c3cccs3)c2)CC(C)O1 (stereo not given)
  0	7%	-2%	0.4%
73. CCOc1ccccc1N(C)C(=O)CCS(=O)(=O)c1ccc2c(c1)NC(=O)CO2
  x	-8%	2%	-1.2%
74. CCOc1cccc(C(=O)Nc2ccc(NC(=O)c3cc4ccccc4o3)c(OC)c2)c1
  x	-17%	-1%	-5.6%
75. Cc1ccccc1C(=O)OCC(=O)N(C)c1ccccc1
  x	19%	-16%	-0.9%
76. COC(=O)c1ccccc1NC(=O)Nc1cccs1
  -1	-27%	-4%	4.6%
77. CSc1nc2c(c(=O)[nH]c(=O)n2C)n1Cc1ccccc1Cl
  x	-17%	0%	7.4%
78. Cc1ccc2[nH]c(=O)c(CN(Cc3ccccc3)Cc3nnnn3C3CCCC3)cc2c1
  -13	10%	-43%	u
79. Cc1c(C(=O)OCc2nnc(-c3ccccc3)o2)oc2ccccc12
  x	0%	x	4.1%
80. CC(C)c1c(O)nc(SCCN(C)C)[nH]c1=O
  4	21%	1%	-0.3%
81. CCN(CC)/C(=N\S(=O)(=O)c1ccccc1C)c1ccccc1
  x	-1%	3%	0.4%
82. COC(=O)c1cccc(NC(=O)CSc2ncn[nH]2)c1
  -16	9%	-8%	3.2%
83. O=C(CCCSc1nc2ccccc2[nH]1)NCc1ccc(Cl)cc1
  3	20%	u	9.8%
84. COc1ccc(CCNS(=O)(=O)c2cccc(S(=O)(=O)N3CCCC3)c2)cc1OC
  -1	-15%	-2%	3.3%
85. CN1CCN(CC(O)COc2ccccc2)CC1 (stereo not given)
  x	-13%	-8%	-0.3%
86. Cn1cccc1Cc1nnc(SCC(=O)Nc2ccc3c(c2)OCO3)n1CCc1ccccc1
  -1	1%	5%	1.3%
87. O=C1OC(OC(=O)c2ccccc2Br)C(N2CCOCC2)=C1Cl (stereo not given)
  5	6%	-1%	-2.1%
88. Cc1cccc(C)c1NS(=O)(=O)c1ccc2c(c1)NC(=O)CO2
  -3[21.1 µM]	1%	7%	-1.6%
89. CCNC(=O)c1ccccc1SCc1ccccc1
  6	13%	-3%	3.6%
90. CC(=O)N1CCC(C(=O)Nc2ccc(S(=O)(=O)N3CCC(C)CC3)cc2)CC1
  x	6%	-5%	0.2%
91. COc1ccc(Br)cc1/C=C/C(=O)c1ccc(NC(C)=O)cc1
  3	-15%	u	6.3%
92. COc1ccc(-n2c(SCC(=O)Nc3ccc(Br)cc3)nc(O)cc2=O)cc1
  -2	-20%	9%	0.6%
93. CC(C)CC(=O)NN1CCCCC1
  8	0%	-4%	0.0%
94. N#CC1=C(c2ccccc2)/C(=C/c2ccccc2)OC1=O
  4	-11%	7%	-0.3%
